BJeLR viability: kills HRASV12-expressing BJeLR cells. BJeLR (HRASV12) viability, CellTiter-Glo ATP luminescence, 48 h; reference of the scale not given here. 0.17% of 300,000 active. inhibition, % (test concentration not listed);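 active = replicate mean above 50%; inconclusive = above 50% but judged a plate artefact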;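 also: 50 nL library stock added to about 25 µL; numbers are from one replicate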
Mtb hypoxia rep: inhibitors of hypoxia-regulated fluorescent reporter in Mycobacterium tuberculosis; M. tuberculosis hypoxia-regulated fluorescent reporter, fluorescence; fluorescence inhibition, % (concentration not given with the values); 0.1% of 300,000 active; AID 1159583;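 active = 35 to 45% if threefold the growth effect, above 45% if 1.5-fold the growth effect; inactive = the rest, general growth blockers included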;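 also: wells of about 50 µL received 100 nL stock; 0% = vehicle wells and 100% = reference inhibitor wells; whole bacteria with a GFP reporter of the hypoxia response; strong numbers were not always called active; many hits fall short of the cut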
RN4220 kill: S. aureus RN4220 growth inhibition; OD600, 16 h; inhibition, % (concentration not given with the values); 0.33% of 330,000 active; AID 1259311;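 active = z-score of -3 or lower and OD600 up to 0.18 on both plates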;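 also: plate controls were untreated cells for no effect and reference antibiotic for full effect; stock transfer was 100 nL into about 80 µL; one replicate is shown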
Bead autofluor: flagged as autofluorescent in microsphere protease counterscreen. compound autofluorescence counterscreen, microsphere flow cytometry; stronger effect = higher value. fluorescence intensity (concentration not given with the values). 3.1% of 360,000 active. AID 624483;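 active = at least 3 SD above the mean of all compounds, about 16000 in these data; inconclusive = too few beads counted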;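 also: 100 nL of 1 mM stock went into each well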
ugtP null kill: compounds lethal to S. aureus RN4220 ugtP deletion mutant. OD600 growth, 16 h; some inactives read as strong as hits. growth inhibition, % (concentration not given with the values). 0.54% of 330,000 active. AID 1259309;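 active = z-score under -3 and OD600 up to 0.15 on both plates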;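 also: plate controls were untreated wells for no effect and antibiotic for full effect; wells of about 80 µL received 100 nL stock; the first replicate is given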
PrP UTR inh: suppresses PrP 5' UTR mRNA reporter expression; cell-based PrP 5' UTR mRNA reporter, plate reader; inhibition, % (concentration not given with the values); 0.35% of 340,000 active; AID 488862;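 active = every replicate at 50% or more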;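 also: 0 = median of the neutral control wells; tested in H4 reporter cells; numbers are from one replicate; inactives centre near -14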
Mtb hypoxia rep growth: also measured in Mtb hypoxia rep; calls as there; growth inhibition, %; measured here: M. tuberculosis growth (absorbance);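 0% = vehicle and 100% = reference antibiotic; read after six days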
Starred values were filed as active, the others as inactive; u = inconclusive; x = not tested or not shown; & = joins results of further samples.

SMILES	BJeLR viability	Mtb hypoxia rep	Mtb hypoxia rep growth	RN4220 kill	Bead autofluor	ugtP null kill	PrP UTR inh
CC[n+]1c(/C=C2/C=C(C)CC(C)(C)C2)sc2ccc(OC)cc21	11	9	14	37	2081	51	-20
CCOc1ccc(OCC(=O)N(CCC2=CCCCC2)c2c(N)n(Cc3ccccc3)c(=O)[nH]c2=O)cc1	-8	x	x	x	u	x	-15
CCOC(=O)N1CCN(C(=O)C2CCN(S(=O)(=O)N(CC)CC)CC2)CC1	6	2	11	0.0	10272	2	-7
COC(=O)CCC(=O)N1CCCC(N2CCN(c3ccc(OC)cc3)CC2)C1 (configuration not stated)	-4	-4	-1	3.1	3201	8	-27
CC(=O)N1CCN(C(=O)C2(NC(=O)Nc3ccc(C)cc3)CCCCC2)CC1	1	-6	-14	1.3	6293	5	-25
CCOC(=O)N1CCC(c2cc(=O)n3[nH]cc(C(=O)OC)c3n2)CC1	5	4	3	5.4	5079	10	-41
Cc1cc(C(F)(F)F)n2ncc(-c3ccc(F)cc3)c2n1	-2	7	0	6.7	2817	13	-24
COC(=O)c1nnn(CC(=O)Nc2cccc(OC)c2)c1C(=O)OC	-9	x	x	3.8	4725	1	0
COc1ccccc1S(=O)(=O)Cc1ccc(C(=O)NCc2ccc3c(c2)OCO3)o1	3	8	2	-8.7	6656	-6	-36
CNC(=O)c1cc(C(=O)c2ccccc2Br)c[nH]1	19	4	-5	-0.6	3067	3	-9
O=C(CSc1nnc(-c2ccc(O)cc2)o1)N1CCOCC1	-2	x	x	0.9	3890	5	-35
COc1ccccc1C(=O)NNC1CC(=O)N(c2ccc3c(c2)OCCO3)C1=O (configuration not stated)	-6	-9	-4	8.6	10587	2	-18
CC(C)CC(=O)Nc1nc2c(c(=O)[nH]1)CCCC2	-7	x	x	0.7	4924	2	-10
COc1cc([N+](=O)[O-])cc(/C=N/NC(=O)Cn2nccc2C)c1O	9	x	x	x	6095	x	-1
O=C(NN=Cc1ccc(OC(=O)c2ccco2)cc1)c1ccc(Cl)cc1	x	12	8	2.0	x	6	x
O=C(O)c1[nH]c2ccc(Cl)cc2c1CC(=O)N1CCN(C(=O)c2ccco2)CC1	5	x	x	3.5	2079	-2	-24
Cc1c(NC(=O)CSc2nnc3c4ccccc4n(CCc4ccccc4)c3n2)c(=O)n(-c2ccccc2)n1C	28	15	13	-2.7	3818	-11	-13
C=CCOc1ccc(Cl)cc1CNC1CCCC1	19	2	11	1.2	4176	12	-37
COC(=O)CSc1nc(SC)nc2c1sc1nc(-c3ccco3)c3c(c12)CC(C)(C)OC3	x	-7	-7	5.4	3638	12	-19
O=C(N/N=C/c1ccccn1)c1ccc(NC(=O)c2cccc([N+](=O)[O-])c2)cc1	3	x	x	x	4512	x	-3
CC1CCN(CCCNC(=O)C2CCC(=O)N2C2CCCC2)CC1 (configuration not stated)	0	5	15	3.3	9314	3	-22
Cc1ccccc1-c1nc(CS(=O)CC(=O)NC(C)CCc2ccccc2)c(C)o1 (configuration not stated)	1	-11	5	-3.7	x	-9	-32
COc1ccc2c(c1)CCC1=C2NC(=S)NC1c1ccc(N(C)C)cc1 (configuration not stated)	-44	-6	12	-6.4	4462	-6	-21
O=C(NCc1ccccn1)c1cccc(S(=O)(=O)N2CCc3ccccc32)c1	x	-8	3	1.3	3546	-3	-19
Cc1nc(NS(=O)(=O)c2ccccc2)sc1NC(=O)OC(C)C	2	-3	7	-1.9	5334	-1	-16
CCc1nnc(NC(=O)CCN2C(=O)/C(=C/c3cc(OC)c(OC)c(OC)c3)SC2=S)s1	1	-6	-5	2.5	3990	2	0
CCN1CCN(C(=O)C2CCN(S(=O)(=O)c3cc(Cl)ccc3Cl)CC2)CC1	2	-1	3	1.0	5115	10	-17
Cc1ccc(NC(=O)c2cc(S(=O)(=O)NCCC3=CCCCC3)ccc2F)cc1	-4	2	5	2.7	11113	31	-34
COC(C)(C)[C@@H](O)COc1c2ccoc2cc2oc(=O)ccc12	x	3	4	-7.9	4039	-1	-12
O=C(c1ccccc1)c1cnc2ccc(Cl)cc2c1N1CCOCC1	3	x	x	1.8	6453	12	4
Cc1ccc(-n2ncc(C(=O)N3CCN(C(=O)c4ccco4)CC3)c2-n2cccc2)cc1	2	0	4	3.1	4486	3	-12
Cc1ccc(NC(=O)c2ccc([N+](=O)[O-])cc2)cc1S(=O)(=O)N(C)C	0	13	10	11	3673	-5	-17
Cc1ccc(C(=O)Nc2ccccc2)cc1S(=O)(=O)Nc1ccc(Cl)cn1	0	-3	-1	7.9	4363	3	-23
COc1ccc(C(CNC(=O)c2ccco2)N2CCOCC2)cc1 (configuration not stated)	x	8	5	3.3	x	1	x
COc1ccc([N+](=O)[O-])cc1NC(=O)COC(=O)Cn1cnc2ccccc2c1=O	x	0	1	-2.5	8577	0	-17
COC(=O)c1cc(OC)c(OC)cc1NC(=O)CSCc1c(C)noc1C	x	4	3	3.8	4070	9	-16
COCCN(C(=O)c1csnn1)C(C(=O)NC1CCCCC1)c1ccccc1 (configuration not stated)	4	8	1	4.3	5776	6	0
COc1cccc(/C=N/NC(=O)CCc2c(C)n[nH]c2C)c1	3	x	x	x	3284	x	-4
CS(=O)(=O)c1ccc(C(=O)NNC(=O)c2cccs2)cc1	x	4	-1	1.7	4060	3	-24
COc1cc(CN2CCN(CCCc3ccccc3)C(CCO)C2)cc(OC)c1O (configuration not stated)	-11	-10	15	5.5	3373	8	-11
CCc1cccc(NC(=O)C2CCCN(S(=O)(=O)c3cccs3)C2)c1 (configuration not stated)	-9	2	-3	0.3	3900	21	-22
COc1ccc(NC(=S)Nc2ccccc2)cn1	-3	1	7	4.6	2334	3	-8
c1ccc(Cc2nn3c(Cn4nnc5ccccc54)nnc3s2)cc1	3	1	9	1.2	22542*	0	2
CC=NNC(=O)CCNC(=O)c1ccccc1	x	5	3	1.9	x	-5	x
Cc1ccnc(N2CCC(C(=O)Nc3cccc(C(F)(F)F)c3)CC2)n1	1	-3	0	1.1	4393	2	-14
O=C(OCC(=O)N1CCN(C(=O)c2ccco2)CC1)c1cc(-c2ccccc2)nc2ccccc12	2	12	7	-13	u	-12	0
COc1cccc(Cn2cccc(NC(=O)NCc3ccccc3)c2=O)c1	-6	8	3	0.1	3886	10	-20
CCn1ncc(S(=O)(=O)Nc2cc(Cl)ccc2C)c1C	-11	3	-2	7.3	4813	1	-15
Cc1cnc(C(=O)OCC(=O)Nc2ccc(OCc3ccccc3)cc2)cn1	x	1	8	2.0	3414	1	-46
Cc1nn(C)c(C)c1S(=O)(=O)N(CC(=O)NC1CCCCCC1)c1ccc(C(C)C)cc1	13	-3	-4	2.1	4339	-5	5

The results go on:
SMILES	BJeLR viability	Mtb hypoxia rep	Mtb hypoxia rep growth	RN4220 kill	Bead autofluor	ugtP null kill	PrP UTR inh
COC(=O)C1=C(c2c(C)noc2C)CC2CCC1N2C(=O)NCc1ccc(F)cc1 (configuration not stated)	x	9	7	6.0	x	3	x
O=C(C1=C(O)C(=O)N(c2nccs2)C1c1ccccc1)c1cc2ccccc2o1 (configuration not stated)	2	-1	-1	6.5	10296	13	0
Cc1ccc(C2=NN(C(=O)CCl)C(c3ccco3)C2)o1 (configuration not stated)	87*	x	x	-0.3	3688	-3	-4
O=C(CN1CCN(S(=O)(=O)c2cccc(F)c2)CC1)Nc1ccnn1C1CCCC1	x	-5	2	-1.9	8740	-2	-10
CCOC(=O)c1nnc(-c2ccccc2)nc1NCc1ccccc1	-1	6	21	15	24408*	-23	-27
CCCCN(Cc1cc2cc(OC)ccc2[nH]c1=O)C(=O)COc1ccccc1	-1	x	x	4.3	3529	-12	-20
CC(=O)c1ccc(NC(=O)CSc2nnc(NC(=O)c3ccco3)s2)cc1	2	12	7	-0.7	6827	0	-26
CCc1c(C)nc2cc(-c3cc(OC)cc(OC)c3)nn2c1N1CCN(CCN2CCOCC2)CC1	-2	x	x	-3.9	5154	-3	-24
O=C(Nc1cccc(S(=O)(=O)C(F)F)c1)c1ccc(Cl)c(S(=O)(=O)N2CCOCC2)c1	16	x	x	-4.2	2316	-2	1
COc1ccc(Cc2c(Cl)ncnc2Cl)cc1	0	5	2	4.3	6602	4	-18
CC1(C)CC2CC(C)(CN2C(=O)COC(=O)c2cncc(Br)c2)C1 (configuration not stated)	x	3	10	2.1	3862	1	-23
Cc1cccc(/C=C/c2onc(C)c2S(=O)(=O)N2CCC(C(=O)N3CCC(C)CC3)CC2)c1	-4	8	1	-3.7	4855	-2	-17
CCc1ccc(-c2nc(CN3CCC(C(=O)NCc4ccco4)CC3)c(C)o2)cc1	3	6	7	-2.5	x	-28	x
CC1(C)C(C#N)=C(N)Oc2c1c(=O)oc1ccccc21	-8	10	4	2.8	3934	5	-15
COc1ccccc1COc1ccc2c(C)c(CC(=O)O)c(=O)oc2c1C	7	-10	8	9.5	4935	-7	-16
CCn1c2ccccc2c2cc(NC(=O)CSc3nnc(-c4ccccc4OC)n3N)ccc21	-3	1	8	5.7	17821*	7	-17
COC(=O)c1ccc(C23CC4(C2)C(CN(CC2CCCCC2)C4c2ccccc2)C3c2ccccc2)cc1 (configuration not stated)	x	7	8	1.4	x	-2	x
CC(C)(C)NC(=O)C1CC2CCCCC2CN1CC(O)C(Cc1ccccc1)NC(=O)C(CC(N)=O)NC(=O)c1ccc2ccccc2n1 (configuration not stated)	x	3&-8	-1&4	6.5&5.5	x	-10&-13	x
COc1ccc(CN2CCC(C(=O)Nc3ccc(Oc4ccccc4)nc3)CC2)cc1F	6	3	4	0.4	5837	6	0
COc1cc(CNC(=O)c2ccc3oc(C(C)C)nc3c2)cc(OC)c1	4	6	2	-3.1	5009	-2	0
COc1ccc(-c2oc(NC(=O)CSc3ncn[nH]3)c(C#N)c2-c2ccc(OC)cc2)cc1	-10	-10	2	5.2	22915*	9	3
CCN(CC)CCn1c2c(c(SCC(=O)Nc3nc4ccc(C)cc4s3)nc1=O)CCC2	11	9	4	8.6	5283	5	-8
N#Cc1ccc(C=NNC(=O)c2cc(-c3cccs3)nc3ccccc23)cc1	x	4	6	-6.5	x	-3	x

By substructure: the compounds so far with a Cl atom (10)
SMILES	BJeLR viability	Mtb hypoxia rep	Mtb hypoxia rep growth	RN4220 kill	Bead autofluor	ugtP null kill	PrP UTR inh
O=C(NN=Cc1ccc(OC(=O)c2ccco2)cc1)c1ccc(Cl)cc1	x	12	8	2.0	x	6	x
O=C(O)c1[nH]c2ccc(Cl)cc2c1CC(=O)N1CCN(C(=O)c2ccco2)CC1	5	x	x	3.5	2079	-2	-24
C=CCOc1ccc(Cl)cc1CNC1CCCC1	19	2	11	1.2	4176	12	-37
CCN1CCN(C(=O)C2CCN(S(=O)(=O)c3cc(Cl)ccc3Cl)CC2)CC1	2	-1	3	1.0	5115	10	-17
O=C(c1ccccc1)c1cnc2ccc(Cl)cc2c1N1CCOCC1	3	x	x	1.8	6453	12	4
Cc1ccc(C(=O)Nc2ccccc2)cc1S(=O)(=O)Nc1ccc(Cl)cn1	0	-3	-1	7.9	4363	3	-23
CCn1ncc(S(=O)(=O)Nc2cc(Cl)ccc2C)c1C	-11	3	-2	7.3	4813	1	-15
Cc1ccc(C2=NN(C(=O)CCl)C(c3ccco3)C2)o1 (configuration not stated)	87*	x	x	-0.3	3688	-3	-4
O=C(Nc1cccc(S(=O)(=O)C(F)F)c1)c1ccc(Cl)c(S(=O)(=O)N2CCOCC2)c1	16	x	x	-4.2	2316	-2	1
COc1ccc(Cc2c(Cl)ncnc2Cl)cc1	0	5	2	4.3	6602	4	-18

Whole records as entered above. Order of screens: BJeLR viability | Mtb hypoxia rep | Mtb hypoxia rep growth | RN4220 kill | Bead autofluor | ugtP null kill | PrP UTR inh
Profile of COC(=O)c1ccc(C23CC4(C2)C(CN(CC2CCCCC2)C4c2ccccc2)C3c2ccccc2)cc1 (configuration not stated) = x | 7 | 8 | 1.4 | x | -2 | x
Profile of COc1ccc(CN2CCC(C(=O)Nc3ccc(Oc4ccccc4)nc3)CC2)cc1F = 6 | 3 | 4 | 0.4 | 5837 | 6 | 0
Profile of CCN(CC)CCn1c2c(c(SCC(=O)Nc3nc4ccc(C)cc4s3)nc1=O)CCC2 = 11 | 9 | 4 | 8.6 | 5283 | 5 | -8
